Bioassay records as filed in PubChem.
BJeLR viability = BJeLR cell viability loss | BJeLR (HRASV12) viability, CellTiter-Glo ATP luminescence, 48 h; reference of the scale not given here | inhibition, % (no concentration beside the values) | actives 0.17% (n = 300,000);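 active = replicate mean above 50%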;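 also: 50 nL library stock added to about 25 µL; numbers are from one replicate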
* = called active by the depositor. This is a subset (hit frequency here may not be typical).

SMILES | BJeLR viability
Oc1ccc2c3c1O[C@H]1c4[nH]c5ccccc5c4C[C@@]4(O)C(C2)N(CC2CC2)CC[C@]314 | 7.6
CC(=O)C1=C(C)NC(SCC(=O)c2ccccc2)=C(C#N)C1c1ccco1 (stereo unspecified) | -1.7
O=C(Nc1ccc(F)c(F)c1)c1ccc(F)c(S(=O)(=O)N2CCOCC2)c1 | 6.1
COC(=O)[C@@]1(Cc2ccc(F)cc2)[C@H]2c3cc(C(=O)N4CCCC4)n(CCc4c[nH]c5ccc(OC)cc45)c3C[C@H]2CN1C(=O)c1ccccc1 | 0.1
NC(=O)[C@H]1CC2(CC(c3cccc(NC(=O)[C@H]4CCC(=O)N4)c3)=NO2)CN1C(=O)CC(c1ccccc1)c1ccccc1 (stereo partly specified) | 0.9
CCOC(=O)c1c(NC(=O)N/N=C/c2ccc(O)c(OC)c2)sc(C(C)=O)c1C | 22.3
CC1=NN(c2ccccc2)C(=O)/C1=C\C=C\c1ccccc1 | 19.6
Cn1ccnc1SCC(=O)Nc1ccc2c(c1)OC(F)(F)O2 | -12.0
C=C1SC(=Nc2ccccc2Cl)N(C(=O)c2sc3ccccc3c2Cl)C12CCCCC2 | 10.5
CCN(CC)C(=O)[C@]1(c2ccccc2)C[C@@H]1CN | 0.5
Cc1ccc2c(Cl)cc(Cl)c(OCC(=O)Nc3ccc(C)c(S(=O)(=O)N(C)C)c3)c2n1 | -4.1
COc1cccc(-c2cc(=O)c3cc(NC(=O)c4ccc(N(C)C)cc4)ccc3[nH]2)c1 | 44.0
CSc1nc(-c2ccco2)nn1S(=O)(=O)c1ccccc1 | 25.0
CCOC(=O)/C(N=Nc1sc(C(=O)OCC)c(C)c1C(=O)OCC)=C(\C)O | 4.9
Cc1ccc(C(=O)n2c(=S)nc3ccccn32)cc1 | 7.3
CCCCNC(=O)c1c(N)n(/N=C/c2ccccn2)c2nc3ccccc3nc12 | -8.6
COc1ccc(N(CC(=O)N/N=C/c2cc3ccc(OC)cc3nc2Cl)S(=O)(=O)c2ccccc2)cc1 | -9.2
NC(=O)c1ccc(N=Nc2c(O)c3ccccc3[nH]c2=O)cc1 | -0.4
O=C(/C=C/c1ccc(Cl)cc1)NC(=S)NN1CCCCC1c1cccnc1 (stereo unspecified) | -1.1
CC(Sc1ccsc1[N+](=O)[O-])C(=O)NCc1ccccc1 (stereo unspecified) | 2.7
Cc1c(/C=N/NC(=O)c2cccnc2)c2ccccn2c1C(=O)c1ccc(F)cc1 | 0.1
CCOC(=O)c1ccc(NC(=O)C2C3C=CC(O3)C2C(=O)O)cc1 (stereo unspecified) | 15.7
CC1(OC(=O)c2cccs2)C(=O)C=C2C=C(c3ccsc3)OC=C2C1=O (stereo unspecified) | -1.3
CN1C=CC(=C2C(=O)c3ccccc3C2=O)C=C1 | 11.1
CCCCn1c(SCc2cc(=O)[nH]c3ccccc23)nc2c1c(=O)n(C)c(=O)n2C | 7.1
COC(=O)/C=C1\OC(c2ccccc2)=CC1=O | 3.0
Cc1ccc(C(=O)N/N=C\c2cc(Br)c(Br)o2)cn1 | 3.3
Cc1ccc(/C=C/C(=O)c2ccc([N+](=O)[O-])o2)cc1 | 10.9
CC(C)Nc1nc(NC(C)C)nc(N(C#N)C(C)C(=O)N(C)C)n1 (stereo unspecified) | -1.5
O=C(N/N=C/c1cccnc1)c1ccccc1OCc1ccc(Cl)cc1 | -1.6
O=C(CN1CCN(Cc2ccccc2Cl)CC1)N/N=C/C=C/c1ccco1 | -12.7
CN(C)c1ccc(/C=c2/sc3n(c2=O)NC2(c4ccccc4)N(C)C(=O)N(C)C2(c2ccccc2)N=3)cc1 (stereo unspecified) | 9.0
S=C(NCCc1ccccc1)N/N=C/C1CCCCC1 | 13.4
COc1ccc(/C(C)=N/Nc2nc3ccccc3n3cnnc23)cc1OC | -5.2
CCOC(=O)CCc1c(C)c2ccc(OCc3cc([N+](=O)[O-])ccc3OC)c(C)c2oc1=O | 7.5
S=c1[nH]nc(-c2n[nH]c3c2CCC3)n1/N=C/C=C/c1ccccc1 | -4.1
CCOC(=O)C1=C(C)Nc2nnnn2C1c1c[nH]c2ccccc12 (stereo unspecified) | 4.5
CC(C)C[C@@H]1NC(=O)[C@H](C(C)C)NC(=O)c2cc([N+](=O)[O-])cc(I)c2NCC[C@@H](C(N)=O)NC1=O | 7.0
CCCn1c(N/N=C(C)\C=C\c2ccccc2)nc2c1c(=O)[nH]c(=O)n2C | 6.4
Cn1c(N)c(C(=O)COC(=O)c2cc(-c3ccco3)nc3ccccc23)c(=O)n(Cc2ccccc2)c1=O | 8.3
Nc1ccc(Sc2ccccc2CC(=O)O)cc1 | -14.1
C[C@H]1COc2c(C3(N)CC3)c(F)cc3c(=O)c(C(=O)O)cn1c23 | 3.0
O=C1CCCC/C1=N\Nc1ccc(C2CCCCC2)cc1 | 3.3
O=C(CC(=O)N/N=C/c1c(F)cccc1Cl)NCc1ccccc1 | 4.4
CCCCCCC#Cc1cncc(C(=O)NNC(=O)Nc2cc(Cl)cc(Cl)c2)c1 | -8.1
Cc1ccc(C(=O)N[C@@H](C)CN2C3=NC[C@H](C)N3C[C@H]2Cc2ccc(O)cc2)cc1Br | 11.0
COc1ccc2no[n+]([O-])c2c1 | -9.9
C=CCN1C(=O)/C(=C2/C(=O)N(CC(=O)O)c3ccccc32)S/C1=N/c1nccs1 | -10.2
C#CCOCCOCCOCCNc1nc(N2CCN(C(=O)[C@H]([C@@H](C)CC)n3cc([C@@H](N)CC(C)C)nn3)CC2)nc(N2CCN(C(=O)[C@H](Cc3cc4ccccc4[nH]3)n3cc([C@@H](N)C(C)CC)nn3)CC2)n1 (stereo partly specified) | -14.7
O=C(CSc1nc(C2CC2)nc2ccccc12)N1CCc2ccccc2C1 | 3.2
C#CCOCCOCCOCCNc1nc(N2CCN(C(=O)[C@H](CCCCN)n3cc([C@@H](N)CO)nn3)CC2)nc(N2CCN(C(=O)[C@H](Cc3cc4ccccc4[nH]3)n3cc([C@@H](N)CC(C)C)nn3)CC2)n1 | -4.1
CC(=O)Nc1ccc(S(=O)(=O)Oc2ccc3c(c2)C(C)=CC(C)(C)N3)cc1 | 32.3
CCCCC1=CC2=CC(=O)C(C)(OC(=O)c3cnc4ccccc4n3)C(=O)C2=CO1 (stereo unspecified) | -2.4
C[C@H]1CC[C@H]2C(=O)N3[C@H](c4ccccc4Br)[C@@H](C)CC[C@H]3C(=O)N2[C@@H]1c1ccccc1Br | -0.3
Cc1nn(-c2ccccc2)c(Cl)c1/C=N/NC(=O)CCNc1n[nH]c(=O)[nH]c1=O | 11.1
C#CCOCCOCCOCCNc1nc(N2CCN(C(=O)[C@H](CCC(=O)O)n3cc(C(N)Cc4ccc(O)cc4)nn3)CC2)nc(N2CCN(C(=O)[C@H](Cc3cc4ccccc4[nH]3)n3cc(C(N)CC(C)C)nn3)CC2)n1 (stereo partly specified) | -7.1
COc1ccc(NC(=O)N(Cc2cccs2)Cc2cc3cc4c(cc3[nH]c2=O)OCO4)cc1 | 0.6
C/C=C\C=C\C(=O)Nc1cccc(C2=NOC3(C2)C[C@H](C(N)=O)N(C(=O)c2ccccc2C(=O)c2ccccc2)C3)c1 (stereo partly specified) | -10.3
CC(C)(O)[C@H]1O[C@H]2CC[C@@]3(C)[C@@](O)(CC[C@H]4Cc5c([nH]c6ccccc56)[C@@]43C)C2=CC1=O | -0.7
C#CCOCCOCCOCCNc1nc(N2CCN(C(=O)[C@H](Cc3ccc(O)cc3)n3cc(CCO)nn3)CC2)nc(N2CCN(C(=O)[C@H](Cc3ccc(O)cc3)n3cc(CCO)nn3)CC2)n1 | -9.7

A draw from above in order of molar mass, low to high.
SMILES | BJeLR viability
CC(Sc1ccsc1[N+](=O)[O-])C(=O)NCc1ccccc1 (stereo unspecified) | 2.7
CCCn1c(N/N=C(C)\C=C\c2ccccc2)nc2c1c(=O)[nH]c(=O)n2C | 6.4
CCCCNC(=O)c1c(N)n(/N=C/c2ccccn2)c2nc3ccccc3nc12 | -8.6

(cont.)
SMILES | BJeLR viability
COc1ccc(/C=C2\Sc3ccc(C(=O)N4CCc5ccccc5C4)cc3N(C)C2=O)cc1 | 10.5
COc1ccc(NS(=O)(=O)c2ccc(N)cc2)nn1 | 6.1
Cn1c(C(C)(O)C(O)c2ccccc2)nc2ccccc21 (stereo unspecified) | -3.7
Cc1ccc(CSCC2Nc3ccc(C(=O)N4CCN(c5cccc(C)c5)C(C)C4)cc3NC2=O)cc1 (stereo unspecified) | -0.2
C/C(=N\Nc1ccc(F)cc1F)c1cccs1 | -24.2
C=CCOc1ccccc1/C=c1\sc2nc(-c3oc4ccccc4c3C)nn2c1=O | 2.2
C[C@H]1[C@@H](OC(=O)CCC(=O)O)O[C@@H]2OC3(C)CC[C@H]4[C@H](C)CC[C@@H]1[C@@]24OO3 | -1.1
O=C(N/N=C1\CCCc2c1[nH]c1ccc([N+](=O)[O-])cc21)c1ccncc1 | 10.9
O=C1c2cccc(O)c2C(=O)c2c(O)cccc21 | 2.3
COc1cc(C2C(C(=O)c3ccco3)=C(O)C(=O)N2c2cc(C)on2)ccc1OCc1ccccc1 (stereo unspecified) | -4.9
COc1ccc(OCc2cc(C(=O)O)c(C)o2)cc1 | 7.8
CCOc1ccc(C2C(C(=O)C3CC3)N3C=C(C#N)C=CC3C2(C#N)C#N)cc1 (stereo unspecified) | 5.2

Individual results from above.
CCOc1ccc(C2C(C(=O)C3CC3)N3C=C(C#N)C=CC3C2(C#N)C#N)cc1 (stereo unspecified) @ BJeLR viability = 5.2
COc1cc(C2C(C(=O)c3ccco3)=C(O)C(=O)N2c2cc(C)on2)ccc1OCc1ccccc1 (stereo unspecified) @ BJeLR viability = -4.9

Carrying on.
SMILES | BJeLR viability
O=C(CCS(=O)NCc1ccccc1)NCc1ccccc1 (stereo unspecified) | -21.1
COc1ccnc(CS(=O)c2nc3cc(OC(F)F)ccc3[nH]2)c1OC (stereo unspecified) | 0.1
CCN(c1ccccc1)S(=O)(=O)c1ccc(C(=O)N(CCN(C)C)c2nc3c(F)cc(F)cc3s2)cc1 | -4.1
O=C(O)c1coc2ccccc12 | -2.3
CCCCNC(=O)Oc1cc(CCl)on1 | -2.8
NNC(=O)c1ccc(NS(=O)(=O)c2ccc(Br)cc2)cc1 | -1.2
Nc1nc(Nc2cccc3ccccc23)nc(C2CCCC2=O)n1 (stereo unspecified) | -4.8
CCCc1nc2c(C)cc(-c3nc4ccccc4n3C)cc2n1Cc1ccc(-c2ccccc2C(=O)O)cc1 | -2.5
CCN(CC)C1CC(=O)N(c2cccc(C)c2)C1=O (stereo unspecified) | 3.9
CCN1CCN(C(=O)N[C@@H](C(=O)N[C@@H]2C(=O)N3[C@@H]2SC(C)(C)[C@@H]3C(=O)O)c2ccccc2)C(=O)C1=O | -7.2
CC(C)Cc1ccccc1O | -8.4
COc1ccc(CN2[C@@H](CC(=O)O)c3ccc(C(F)(F)F)cc3S2(=O)=O)cc1 | -0.3
COc1cc(NS(=O)(=O)c2ccc(N)cc2)ncn1 | 8.9
Cc1cccc(-n2c3nc(=O)[nH]c(=O)c-3cc3c(C)nn(-c4ccccc4)c32)c1 | -2.0
NCCCC[C@H](NC(=O)C1CCNCC1)c1nnc(CN)o1 | -3.7
NS(=O)(=O)c1ccc(-c2ccc(/C=C3\C(=O)Nc4ccccc43)o2)cc1 | -4.1
CCOc1ccc(NC(=O)c2oc3ccccc3c2NC(=O)CC)cc1 | 11.0
O=c1cc(CO)oc(C(Nc2ccccn2)c2ccsc2)c1O (stereo unspecified) | -3.8
CSCCNC(C)=O | -14.0
C#CCOCCOCCOCCNc1nc(N2CCN(C(=O)[C@H](CCCCN)n3cc([C@@H](N)C(C)CC)nn3)CC2)nc(N2CCN(C(=O)[C@H](CCCCN)n3cc([C@@H](N)CO)nn3)CC2)n1 (stereo partly specified) | 7.0
c1ccc(COCCC2CO2)cc1 (stereo unspecified) | -1.7
COC(=O)C1(C)Cc2cc(OC(C)=O)c(OC(C)=O)cc2N1 (stereo unspecified) | -1.1
CCC/C=C(\CCC)C(NC(=O)c1ccc(C(F)(F)F)cc1)c1ccccc1 (stereo unspecified) | 0.2
C[C@@H]1C[C@@H]2OC(=O)[C@]3(C)[C@H]2[C@@H](OC3(C)O)[C@]2(C)C(=O)CC[C@H]12 (stereo partly specified) | 5.9

Part of the list above, as labelled records:
> CCOC(=O)c1ccc(NC(=O)C2C3C=CC(O3)C2C(=O)O)cc1 (stereo unspecified)
- BJeLR viability: 15.7
> CCOC(=O)/C(N=Nc1sc(C(=O)OCC)c(C)c1C(=O)OCC)=C(\C)O
- BJeLR viability: 4.9
> CN(C)c1ccc(/C=c2/sc3n(c2=O)NC2(c4ccccc4)N(C)C(=O)N(C)C2(c2ccccc2)N=3)cc1 (stereo unspecified)
- BJeLR viability: 9.0
> CCN(CC)C1CC(=O)N(c2cccc(C)c2)C1=O (stereo unspecified)
- BJeLR viability: 3.9

Going on with the list.
SMILES | BJeLR viability
CC1(C2(O)CC(c3ccccc3)ON2)CCCCC1 (stereo unspecified) | -4.9
CCOC(=O)C1=C(C)NC(=O)C1CC(=O)Nc1ccccc1 (stereo unspecified) | -13.5
c1ccc(-c2ccc(-c3ccccn3)nn2)nc1 | 7.8
COc1ccccc1C(C)NS(=O)(=O)c1cccs1 (stereo unspecified) | 7.8
Cc1cc(=O)n2c3c(sc2n1)C(=O)N(Cc1ccccc1)C3=O | -8.8
CCCCC1=CC2=CC(=O)C(C)(OC(=O)c3ccc(Cl)nc3)C(=O)C2=CO1 (stereo unspecified) | -6.3
COc1ccc(-c2ccnc3nc(/N=C/N(C)C)nn23)cc1 | -0.5
Cc1cc(C(=O)N/N=C/c2cc(Br)ccc2OC(=O)c2ccc(Br)cc2)n[nH]1 | 8.7
O=C(CNc1n[nH]c(=O)[nH]c1=O)N/N=C/c1ccccc1 | 0.6

Four of these compounds, set out differently:
SMILES,BJeLR viability
CCOC(=O)C1=C(C)NC(=O)C1CC(=O)Nc1ccccc1 (stereo unspecified),-13.5
COc1ccc(-c2ccnc3nc(/N=C/N(C)C)nn23)cc1,-0.5
COc1ccccc1C(C)NS(=O)(=O)c1cccs1 (stereo unspecified),7.8
CCCCC1=CC2=CC(=O)C(C)(OC(=O)c3ccc(Cl)nc3)C(=O)C2=CO1 (stereo unspecified),-6.3
